Mtb H37Rv – M. tuberculosis H37Rv growth inhibitors, H37Rv strain (AID 1626) | 0.95% of 220,000 active | inhibition, % at 10 µM; hits with a dose series show IC50 in µM | M. tuberculosis H37Rv growth inhibition; higher % means a stronger effect;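 active = confirmed in a dose series; inconclusive = inhibition above 80% but not taken into the dose series; inactive = below 80% or under 30% at every dose of the series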;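 also: bacteria incubated seven days before Alamar blue readout; 0% = bacteria only wells and 100% = bacteria with antibiotic wells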
Arbovirus anti – antivirals against arbovirus infection, primary screen, cell-based, full library, 10K replicate subset; AID 1251, 2008; inhibition, % at 10 µM; 0.37% of 200,000 active; arbovirus infection cell-based antiviral screen;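 active = inhibition from about 30%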;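 also: bluetongue infection of BSR cells; cell survival read as ATP light after 72 h; 0% = infected wells without compound and 100% = uninfected wells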
Mtb betalactam – beta-lactam sensitization of Mtb H37Rv, H37Rv. inhibition, % at 25 µM. 0.27% of 330,000 active. M. tuberculosis H37Rv growth with meropenem, percent inhibition; hits of this screen are not shown here;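 active = about 74% or more and at least 40 points above the plate without the antibiotic, then above 30% in a dose series; inconclusive = first-round hits that could not be retested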;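 also: growth measured after seven days incubation then overnight dye step; 0% = bacteria only wells and 100% = bacteria with antibiotic; twin plates without the antibiotic show which effects depend on it; some results filed as inactive read as strong as hits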
YopH inh – YopH tyrosine phosphatase inhibitors, primary screen, biochemical, fluorescence Ex485/Em525; YopH tyrosine phosphatase [Yersinia enterocolitica]; inhibition, %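 (about 10 µM by stock and volumes)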; 0.16% of 140,000 active;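 active = inhibition of 50% or more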;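 also: controls were vehicle for no effect and minimum signal wells for full effect; inactives centre near -20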
RecA intein inh – Mtb RecA intein splicing inhibitors, primary screen, biochemical, fluorescence, HTS. Protein RecA (Mycobacterium tuberculosis (strain ATCC 25618 / H37Rv)), P9WHJ3. cell-free RecA intein splicing. inhibition, %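 (about 9 µM by stock and volumes)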. 0.75% of 290,000 active; in the data active = inhibition above about 30%; inconclusive = no clear call, values can overlap the other calls;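 also: 0% = vehicle wells and 100% = reference inhibitor control wells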
Target sequence (P9WHJ3 whole entry, looked up): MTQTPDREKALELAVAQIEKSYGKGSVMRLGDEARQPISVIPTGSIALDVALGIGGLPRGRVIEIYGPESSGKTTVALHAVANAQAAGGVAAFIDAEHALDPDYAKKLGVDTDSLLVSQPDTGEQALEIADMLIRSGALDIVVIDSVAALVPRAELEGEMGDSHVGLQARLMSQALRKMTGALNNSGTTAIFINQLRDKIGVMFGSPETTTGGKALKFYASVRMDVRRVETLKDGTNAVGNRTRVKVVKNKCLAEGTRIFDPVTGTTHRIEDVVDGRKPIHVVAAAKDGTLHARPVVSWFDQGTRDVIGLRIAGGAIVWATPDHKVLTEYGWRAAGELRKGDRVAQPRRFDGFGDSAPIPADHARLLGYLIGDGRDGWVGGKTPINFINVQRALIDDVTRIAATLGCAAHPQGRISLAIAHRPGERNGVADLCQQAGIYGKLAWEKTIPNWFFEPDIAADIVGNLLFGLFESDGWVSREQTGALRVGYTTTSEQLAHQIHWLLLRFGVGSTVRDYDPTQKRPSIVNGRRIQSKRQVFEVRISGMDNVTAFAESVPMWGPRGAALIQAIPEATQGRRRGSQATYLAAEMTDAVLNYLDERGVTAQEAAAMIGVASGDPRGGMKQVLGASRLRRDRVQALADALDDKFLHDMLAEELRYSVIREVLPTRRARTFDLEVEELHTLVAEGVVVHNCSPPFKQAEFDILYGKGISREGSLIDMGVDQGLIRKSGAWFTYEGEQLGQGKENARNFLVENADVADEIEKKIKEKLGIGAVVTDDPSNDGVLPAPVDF
* = called active by the depositor; u = inconclusive; x = no result given.

SMILES | Mtb H37Rv | Arbovirus anti | Mtb betalactam | YopH inh | RecA intein inh
O=c1c2ccccc2nc(SCc2cn3ccsc3n2)n1-c1ccccc1 | 5% | 0 | 3 | -19 | 10
CC1=C(C(=O)OCC2CCCO2)C(c2coc3ccccc3c2=O)C2=C(CCCC2=O)N1 (stereo unspecified) | 3% | 10 | -9 | x | -4.0
Cc1ccc(CN2CCN(Cc3cnc(N4CCOCC4)s3)CC2CCO)o1 (stereo unspecified) | -1% | 14 | 8 | x | 0.1
CCOc1ccccc1N1Cc2ccccc2C1 | x | 2 | -10 | -21 | 5.3
Cc1ccc(S(=O)(=O)N(C)c2ccc3sc(C)nc3c2)cc1 | -7% | -21 | 10 | x | 1.8
Cc1ccc(NCc2nc3ccccc3n2C)c(C)c1 | x | x | -4 | x | -0.2
CCCCOC(=O)CSc1nc(N)c(C#N)c(-c2ccc(OCC)cc2)c1C#N | 58% | 18 | -5 | -35 | 0.4
COc1cc([N+](=O)[O-])ccc1NC(=O)C1C2C=CC(C2)C1C(=O)O (stereo unspecified) | x | x | -2 | x | -0.9
CC(CC(=O)Nc1nnc(C(C)(C)C)s1)c1ccccc1 (stereo unspecified) | x | x | 1 | x | -1.7
O=C(O)c1cc(NN=Nc2cccc(S(=O)(=O)O)c2)cc([N+](=O)[O-])c1 | x | x | -2 | x | 3.1
CCc1c(C(=O)Nc2ccccc2C(N)=O)csc1C | x | x | 1 | x | 0.9
COc1cccc(C(=O)NCC(=O)N/N=C/c2ccc3c(c2)OCO3)c1 | x | x | 2 | x | -4.0
CCOC(=O)N1CCN(C2=C(NS(=O)(=O)c3ccc(NC(C)=O)cc3)C(=O)c3ccccc3C2=O)CC1 | x | x | 6 | x | 1.8
Cn1c(CNc2ccccc2)cc(=O)n(C)c1=O | -3% | 0 | -12 | -26 | -2.2
COCCCNC(=S)N1CCCN(c2nc3cc(C)ccc3cc2C#N)CC1 | 9% | 5 | 4 | x | -24
COc1ccc(S(=O)(=O)N=C2C=C(C)C(=O)C(C)=C2)cc1 | -6% | -32 | -2 | -20 | 2.3
Cc1ccc2c(CC(=O)OCC(=O)Nc3ccc(Cl)cn3)coc2c1 | -3% | 6 | 10 | 14 | -6.9
O=C(NC1(C(F)(F)F)NC(=O)N(C2CCCC2)C1=O)C1CC1 (stereo unspecified) | 0% | 8 | 20 | -13 | -8.1
Cc1cc(CN2CCC(n3nccc3NC(=O)c3ccccc3Cl)CC2)cc(C)c1O | x | x | 1 | x | -3.9
COc1ccc(CCNC(=O)c2ccc3c(c2)OCO3)cc1 | x | x | 3 | x | -1.2

4 entries from above, set out differently:
structure: CC(CC(=O)Nc1nnc(C(C)(C)C)s1)c1ccccc1 (stereo unspecified)
  Mtb H37Rv = x; Arbovirus anti = x; Mtb betalactam = 1; YopH inh = x; RecA intein inh = -1.7

structure: O=C(O)c1cc(NN=Nc2cccc(S(=O)(=O)O)c2)cc([N+](=O)[O-])c1
  Mtb H37Rv = x; Arbovirus anti = x; Mtb betalactam = -2; YopH inh = x; RecA intein inh = 3.1

structure: CCc1c(C(=O)Nc2ccccc2C(N)=O)csc1C
  Mtb H37Rv = x; Arbovirus anti = x; Mtb betalactam = 1; YopH inh = x; RecA intein inh = 0.9

structure: COc1cccc(C(=O)NCC(=O)N/N=C/c2ccc3c(c2)OCO3)c1
  Mtb H37Rv = x; Arbovirus anti = x; Mtb betalactam = 2; YopH inh = x; RecA intein inh = -4.0

Back to the main list, starting four compounds before the break.
SMILES | Mtb H37Rv | Arbovirus anti | Mtb betalactam | YopH inh | RecA intein inh
Cc1ccc2c(CC(=O)OCC(=O)Nc3ccc(Cl)cn3)coc2c1 | -3% | 6 | 10 | 14 | -6.9
O=C(NC1(C(F)(F)F)NC(=O)N(C2CCCC2)C1=O)C1CC1 (stereo unspecified) | 0% | 8 | 20 | -13 | -8.1
Cc1cc(CN2CCC(n3nccc3NC(=O)c3ccccc3Cl)CC2)cc(C)c1O | x | x | 1 | x | -3.9
COc1ccc(CCNC(=O)c2ccc3c(c2)OCO3)cc1 | x | x | 3 | x | -1.2
N#Cc1c(SCC(=O)O)nc(N2CCCCC2)c2c1CCCC2 | 5% | 9 | x | -26 | 0.1
COc1cccc(-n2cn[nH]c2=S)c1 | 3% | 7 | -7 | x | -2.7
CCC(=O)N1CCc2cc(S(=O)(=O)NCCC(=O)Nc3cc(C)cc(C)c3)ccc21 | 1% | 3 | -5 | -35 | -3.4
Oc1ccc2c(c1)C1CCCC1(N1CCOCC1)O2 (stereo unspecified) | 2% | 8 | 21 | 39 | -1.7
C=CCN1C(=O)CSC1=Nc1ccc(O)cc1 | 0% | -27 | x | -10 | -1.9
CCCCOc1ccc(/C(O)=C2/C(=O)C(=O)N(CCN(C)C)C2c2ccc(O)c(OC)c2)cc1 (stereo unspecified) | -4% | 5 | -5 | -4 | -0.8
Cc1cccc(CN2CCN(CC(=O)N3CCCC3)C2=O)c1 | -6% | 7 | -3 | -10 | 2.1
COC(=O)C1=CN(CC2CCCO2)C=C(C(=O)OC)C1c1cccc(O)c1 (stereo unspecified) | -4% | -1 | 1 | x | -122
O=C(NCCc1ccccc1)C1CCN(S(=O)(=O)c2ccc(-c3nn[nH]n3)cc2)CC1 | 1% | 11 | -1 | -35 | -0.1
CCOCCn1c(CN2CCCCC2)nc2c1c(=O)n(C)c(=O)n2C | x | x | -4 | x | 0.2
Cc1cc(C(=O)COC(=O)c2ccc(N)c([N+](=O)[O-])c2)c(C)n1-c1ccc2c(c1)OCO2 | 5% | -3 | 32 | -25 | -0.6
CCOc1ccc(-n2c(SCC(=O)Nc3ccccc3C)n[nH]c2=O)cc1 | 2% | 5 | -1 | -92 | 3.0
O=C(c1cc2c(ccc3ccccc32)o1)N1CCN(c2ncc(C(F)(F)F)cc2Cl)CC1 | 6% | 3 | -5 | -11 | 2.4
CCn1c(SCC(=O)NC2CCCc3ccccc32)nnc1-c1ccncc1 (stereo unspecified) | -5% | -5 | -3 | -30 | -1.1
COc1ccc2c(=O)cc(-c3cccnc3)oc2c1OC | 4% | x | 25 | x | -3.6
COc1ccc(C)cc1N(C(=O)c1cccc(F)c1)c1nc2ccccc2s1 | 5% | 2 | 5 | -20 | x
COc1ccc(/C=N/n2c(C)nc3ccccc3c2=O)cc1 | x | x | 1 | x | 4.2
CCc1ccc(-n2ccc(=O)c(C(=O)O)n2)cc1 | x | x | -6 | x | 0.5
CCC(NC(=O)Cn1cnc2c(=O)n(C)c(=O)n(C)c21)c1ccccc1 (stereo unspecified) | -18% | 5 | 6 | -11 | x
CCn1c(=O)c(C(=O)NCCc2ccccc2)c(O)c2ccccc21 | 4% | -24 | -5 | -5 | 4.1

Results in Arbovirus anti, YopH inh and Mtb betalactam, for some of the entries so far:
molecule | Arbovirus anti | YopH inh | Mtb betalactam
CCc1ccc(-n2ccc(=O)c(C(=O)O)n2)cc1 | x | x | -6
CCC(NC(=O)Cn1cnc2c(=O)n(C)c(=O)n(C)c21)c1ccccc1 (stereo unspecified) | 5 | -11 | 6

Remaining list, next part.
SMILES | Mtb H37Rv | Arbovirus anti | Mtb betalactam | YopH inh | RecA intein inh
O=C(Cc1ccccc1)Nc1ccc(C(=O)Nc2ccc(O)cc2)cc1 | x | x | -5 | x | 2.1
CC(=O)Nc1ccc2c(c1)C(=O)N(C1CCCCC1)C2=O | -4% | -9 | -3 | -8 | 1.3
c1ccn2c(SCc3cn4ccsc4n3)nnc2c1 | 14% | 4 | 1 | 6 | -3.0
Cn1c(SCC(=O)NCc2ccc(F)cc2)nc2ccccc21 | -5% | 0 | -2 | -31 | 31*
O=C1C=C(N2CCCCC2)c2ccccc2C1=O | x | x | -4 | x | 98*
CC(C)CC(=O)Nc1ccccc1N1CCN(C(=O)c2ccccc2)CC1 | x | 25 | -12 | -11 | -0.5
C=CCn1c(=O)c2ccccc2n2c(SCC(=O)N3CCCc4ccccc43)nnc12 | -12% | -5 | -3 | 2 | -0.7
COc1ccc(NC(=O)c2ccc(-c3ccc([N+](=O)[O-])cc3)o2)cc1OC | u | -1 | 65 | -7 | -0.5
COC(=O)c1ccc(CNC(=O)c2sccc2-c2ccccc2)cc1 | x | x | 38 | x | 10
COc1ccc(/C=N/NC(=O)CNC(=O)c2ccncc2)cc1OC | x | x | -1 | x | -2.2
O=C(O/N=C(/c1ccccc1)c1ccncc1)c1ccc(F)cc1 | -5% | -7 | 3 | x | 0.3
O=C1N(c2cccc3ccccc23)C(c2ccccc2)N2CCCN12 (stereo unspecified) | 4% | 0 | x | 5 | -3.1
CC(=O)Oc1ccc(Cl)cc1/C=C/c1ccc2ccccc2n1 | 5% | 12 | 6 | -17 | 17
O=S(=O)(NCc1ccccn1)c1ccc(F)cc1 | -3% | 5 | 2 | -41 | 1.7
O=C1CSC2(C(=O)N3CCCc4cccc2c43)N1c1cccc(C(F)(F)F)c1 (stereo unspecified) | 1% | -15 | -2 | -8 | x
Cc1ccc(C(=O)Nc2cccc(-c3cnc4ccccc4n3)c2)cc1 | 12% | -13 | 3 | 0 | 0.0
Cc1nn(-c2ccc(N3CCCCC3)nn2)c(C)c1CCC(=O)Nc1ccc(F)cc1 | x | x | u | x | 0.7
C(=C\c1ccccn1)/c1ccncc1 | -1% | x | -10 | x | 1.1
CCOC(=O)c1cnc2c(C)cc(Cl)cc2c1N1CCN(C)CC1 | x | x | -4 | x | -1.6
CCc1cc(C(c2ccc(F)cc2)N2CCOCC2)c(NC(=O)c2ccccc2)s1 (stereo unspecified) | 2% | 20 | 84 | -19 | x
CC(C)Cc1cc(C(=O)N2CCCC(C(=O)c3cc(F)ccc3F)C2)n(C)n1 (stereo unspecified) | x | x | -7 | x | 1.2
CCN(CC)S(=O)(=O)c1ccc(OCCNS(C)(=O)=O)cc1 | 1% | 3 | -4 | x | -0.9
Cc1cc(C)nc(NN=C2CCCC2)n1 | -3% | 1 | 7 | -28 | -5.6
CCc1nnc(N2CCN(c3ncnc4c3oc3ccccc34)CC2)s1 | -1% | 7 | x | -2 | 1.6
COc1ccc(N2CC(C(=O)NCCc3c[nH]c4ccccc34)CC2=O)cc1 (stereo unspecified) | x | x | -9 | x | -0.3
CCCCC(=O)Nc1ccc(C(=O)Nc2ccc(S(=O)(=O)Nc3nccc(C)n3)cc2)cc1 | -4% | 6 | 46 | -18 | -0.5
CCc1ccccc1N(CC(=O)Nc1cccc(N(C)S(C)(=O)=O)c1)S(C)(=O)=O | -20% | 0 | 4 | -1 | -0.2
C=C1CCN([C@@H](C)C(=O)OCc2cccc(C)c2)S(=O)(=O)c2ccccc21 | -10% | x | -9 | x | 6.9
COCC(=O)Nc1cccc(Br)c1 | -6% | 8 | 0 | 10 | 1.5
Cc1cc(O)c2c(c1)C(=O)c1cc(O)cc(O)c1C2=O | 28% | x | 61 | x | 4.6
CCOC(=O)C1CCCN(C(=O)c2cc(CN3C(=O)c4ccccc4C3=O)ccc2OC)C1 (stereo unspecified) | x | x | -10 | x | -2.9
Cc1ccc(/C=C/C(=O)O)cc1S(=O)(=O)N1CCc2ccccc21 | x | x | 0 | x | 1.5
CC(NC(=O)c1cccs1)c1ccc(Cl)cc1 (stereo unspecified) | x | x | 0 | x | 1.5
COc1ccc(N2C(=O)NC(=O)/C(=C/c3ccc(N4CCOCC4)cc3)C2=O)cc1 | 9% | -3 | 6 | x | -8.5
COc1ccc(CNC(=O)CSc2nnc(NC(=O)c3ccccc3F)s2)cc1 | x | x | -4 | x | -3.9
COc1ccc(S(=O)(=O)Nc2cccc(S(=O)(=O)N3CCCC3)c2)cc1OC | x | x | -19 | x | -0.7
CCCCn1c(N)c(N(CC)C(=O)c2cc(OC)cc(OC)c2)c(=O)[nH]c1=O | 2% | 6 | -6 | x | 1.8
COc1ccc(CN(CC(=O)NCc2ccc(F)cc2)C(=O)CCC(=O)Nc2ccccn2)cc1 | x | x | -2 | x | -0.1
COc1cc(CCCN2CCNC[C@@H]2Cc2ccccc2)cc(OC)c1OC | x | x | -8 | x | -1.5
COCCCNC(=O)c1c(N)n(/N=C/c2cccs2)c2nc3ccccc3nc12 | 11% | 4 | 27 | -39 | -45
O=S(=O)(NCc1cc(-c2ccccc2)no1)c1ccccc1 | 7% | -5 | -3 | x | 6.1
CC(C)CCN1C(=O)c2ccc(C(=O)NCC3CCCO3)cc2C1=O (stereo unspecified) | 3% | -1 | -2 | -32 | 1.6

A portion of the library (hit frequency here may not be typical).
